FGF22 binding = binders of recombinant human FGF22 by thermal shift | Q9HCT0 | actives 1.5% (n = 340,000) | SYPRO orange fluorescence; percent of sucrose octasulfate shift, DMSO zero | calls only at 9.99 µM;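 active = melting point raised past a set limit in the mean and every replicate; inconclusive = no clear call; three in four hits are not shown here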
Target sequence (Q9HCT0 whole entry, looked up): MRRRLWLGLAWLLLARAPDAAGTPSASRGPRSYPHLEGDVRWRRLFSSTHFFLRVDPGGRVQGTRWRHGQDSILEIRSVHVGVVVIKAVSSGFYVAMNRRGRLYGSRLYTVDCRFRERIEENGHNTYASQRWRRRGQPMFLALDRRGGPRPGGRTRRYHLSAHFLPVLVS
RanGTP-Impb inh = disruptors of Ran-importin-beta complex formation – biochemical, FRET, CFP-Ran, YFP-importin-beta, homogeneous, primary screen; inhibition, % (no concentration beside the values); actives 1.1% (n = 300,000); cell-free CFP-Ran/YFP-importin-beta FRET ratio;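 active = most replicates above 15%; inconclusive = exactly half above 15%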;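 also: 0% = DMSO wells and 100% = Ran loaded with GDP instead of GTP; wells of about 40 µL received 100 nL stock; the first replicate is given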
MLL AF4-AF9 inh = blocks AF4 peptide binding to human AF9. P42568. AlphaScreen, biotin-AF4 peptide binding to FLAG-AF9. inhibition, % at 10 µM. actives 0.47% (n = 350,000). AID 651704;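 active = every replicate reaching a set inhibition limit, whatever the replicate mean, cut at about 25% in these data; inconclusive = mean inhibition reaches that limit but some replicates miss it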;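 also: 0% = plate neutral control median and 100% = total signal loss; the record names both 10 and 1 µM as test concentration; the first replicate is given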
Target sequence (P42568 whole entry, looked up): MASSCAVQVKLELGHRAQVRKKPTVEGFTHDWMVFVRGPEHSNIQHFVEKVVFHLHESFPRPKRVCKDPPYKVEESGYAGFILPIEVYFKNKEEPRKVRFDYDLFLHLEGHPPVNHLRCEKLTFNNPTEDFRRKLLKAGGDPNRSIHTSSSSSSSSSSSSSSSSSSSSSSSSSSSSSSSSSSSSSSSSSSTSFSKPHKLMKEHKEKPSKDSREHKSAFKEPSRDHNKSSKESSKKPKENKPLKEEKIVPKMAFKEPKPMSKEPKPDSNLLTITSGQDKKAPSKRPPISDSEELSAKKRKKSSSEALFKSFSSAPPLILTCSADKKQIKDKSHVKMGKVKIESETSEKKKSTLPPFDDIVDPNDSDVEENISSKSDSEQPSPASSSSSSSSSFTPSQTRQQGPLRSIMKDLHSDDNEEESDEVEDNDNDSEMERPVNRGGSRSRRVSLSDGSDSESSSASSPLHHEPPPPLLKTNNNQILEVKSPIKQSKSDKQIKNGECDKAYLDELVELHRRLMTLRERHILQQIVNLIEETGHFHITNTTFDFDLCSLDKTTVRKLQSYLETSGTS
T cruzi repl = blocks replication of Trypanosoma cruzi. T. cruzi beta-gal in NIH3T3, luminescence, 90 h. inhibition, % (test concentration not listed). actives 1.4% (n = 300,000). AID 1885;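 active = mean inhibition across valid replicates above about 55%, limit read from the data; inconclusive = mean below that limit but half or more replicates reach it; inactive = mean below it, under half of replicates reach it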;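 also: signal also drops with host cell toxicity which is not excluded here; 0% = plate median of DMSO wells and 100% = zero luminescence signal; higher percent means less beta-gal luminescence so fewer parasites; stock transfer was 50 nL into about 50 µL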
Beta cell apopt = blocks beta cell apoptosis; protection from apoptosis, % (no concentration beside the values); actives 0.8% (n = 300,000); AID 435005; INS-1E cytokine-induced death, ATP luminescence, 48 h; percent of positive-control rescue, neutral wells zero;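 active = all replicates at 75% or more, or half of them and the mean; inconclusive = half reach 75% but not the mean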;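 also: 0% = cytokine-treated negative control wells and 100% = positive control rescue; higher means more ATP so stronger rescue from cytokine killing; wells of about 40 µL received 100 nL stock; the first replicate is given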
Calb FLC = affects C. albicans growth with fluconazole; C. albicans CaCi-2 (fluconazole-resistant clinical isolate) + fluconazole, Alamar Blue growth, 48 h; growth inhibition, % (no concentration beside the values); actives 0.57% (n = 300,000);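 active = most replicates above 75%; inconclusive = exactly half above 75%; inactive = most below 75%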;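 also: all wells also contain fluconazole at 8 µg/ml as a sub-toxic cotreatment; 0% = median of DMSO wells and 100% = median of geldanamycin control wells; wells of about 8 µL received 7.5 nL stock; the first replicate is given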
rRNA inh HTS = inhibits bacterial ribosomal RNA function over humanized ribosomes; GFP signal change (wild-type ribosome), % (concentration not given with the values); actives 1.6% (n = 350,000); E. coli WT GFP vs humanized-ribosome RFP mutants, fluorescence, 24 h; stronger effect = lower value; DMSO median 0, no signal -100; AID 720706;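 active = significant combined selectivity score with lowered wild-type GFP, culture density cut under 30%, mutant RFP and density less affected; inactive = any of these conditions unmet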; also: one replicate is shown; some compounds called inactive have numbers as strong as hits
ALR H2O2 inh = human ALR oxidase inhibition via reduced H2O2. purified ALR, DTT oxidation, H2O2 HRP-luminol luminescence. inhibition, % (concentration not given with the values). actives 3.8% (n = 290,000). AID 485317;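 active = mean and each replicate at 75% or more; inconclusive = only one of the two met; inactive = neither met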;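 also: stock transfer was 7.5 nL into about 7.5 µL; 0% = neutral wells and 100% = wells with inactivated enzyme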
Target sequence (P55789 whole entry, looked up): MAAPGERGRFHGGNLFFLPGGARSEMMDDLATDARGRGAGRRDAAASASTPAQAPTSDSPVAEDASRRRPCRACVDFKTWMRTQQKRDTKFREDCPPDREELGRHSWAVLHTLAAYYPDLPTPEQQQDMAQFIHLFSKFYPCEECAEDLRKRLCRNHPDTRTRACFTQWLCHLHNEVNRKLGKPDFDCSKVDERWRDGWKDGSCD
rRNA inh HTS OD600 = further read-out of rRNA inh HTS, marked with its call; OD600 change, %; measured here: OD600 growth;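 optical density of the mix in the first replicate; 0 = DMSO median and -100 = no signal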
rRNA inh HTS RFP = further read-out of rRNA inh HTS, marked with its call; RFP signal change, %; measured here: RFP humanized mutant strains;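 first replicate; 0 = DMSO median and -100 = no signal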
* hit, by the source's call; i = inactive; ? = inconclusive; / = not tested or not shown. Some of the compounds tested; rates above refer to the full screens.

The first 12 entries, ahead of the listing:
SMILES	FGF22 binding	RanGTP-Impb inh	MLL AF4-AF9 inh	T cruzi repl	Beta cell apopt	Calb FLC	rRNA inh HTS	rRNA inh HTS OD600	rRNA inh HTS RFP	ALR H2O2 inh
CCC(=O)Nc1ccccc1C(=O)OCC(=O)c1cccc2ccccc12	/	-2.7	/	-13	7	10	/	/	/	/
C=CCn1c(=N)n(CC(=O)c2ccc(Br)cc2)c2ccccc21	i	3.2	-1.0	8	1	5	-6	-7	3.0	0
Cc1ccsc1/C=C/C(=O)O	i	-1.7	-2.6	-9	-4	-2	5	11	-0.8	-1
COc1ccc(N(CC(=O)Nc2ccc(C)cn2)S(=O)(=O)c2c(C)nn(C)c2C)cc1	i	/	-12	/	3	/	-4	-7	0.0	-1
C=CCn1c(Sc2nc(C)cs2)nc2c1c(=O)[nH]c(=O)n2C	/	0.7	/	10	4	-36	/	/	/	-18
COc1ccccc1N1CCN(C(=O)CCCCn2c(=O)[nH]c3ccsc3c2=O)CC1	i	/	-4.7	/	0	/	-5	2	-0.9	7
COc1ccc(C(=O)/C=C(\C)NCc2ccc3c(c2)OCO3)cc1	/	24*	/	?	-3	-9	/	/	/	1
CCc1cccc(NS(=O)(=O)c2csc(C(N)=O)c2)c1	i	0.2	-0.5	-7	-3	-1	0	-2	8.5	-4
COc1ccc(C)cc1S(=O)(=O)N1CCN(C)CC1c1ccccc1 (stereo not drawn)	i	/	-6.6	/	-13	/	6	6	2.8	8
CCNC(=O)c1ccccc1SCC(=O)Nc1ccc(F)cc1	i	-0.2	-1.8	-9	-5	-8	3	9	3.8	-6
OCC1(Cc2ccc(F)cc2)CCCN(CCc2ccccc2)C1 (stereo not drawn)	i	5.8	4.6	3	-4	-4	6	6	0.1	/
O=C(c1[nH]ncc1[N+](=O)[O-])N1CCOCC1	i	3.8	-0.5	-4	-4	-3	11	11	0.0	0

This part in full, from the first entry:
SMILES	FGF22 binding	RanGTP-Impb inh	MLL AF4-AF9 inh	T cruzi repl	Beta cell apopt	Calb FLC	rRNA inh HTS	rRNA inh HTS OD600	rRNA inh HTS RFP	ALR H2O2 inh
CCC(=O)Nc1ccccc1C(=O)OCC(=O)c1cccc2ccccc12	/	-2.7	/	-13	7	10	/	/	/	/
C=CCn1c(=N)n(CC(=O)c2ccc(Br)cc2)c2ccccc21	i	3.2	-1.0	8	1	5	-6	-7	3.0	0
Cc1ccsc1/C=C/C(=O)O	i	-1.7	-2.6	-9	-4	-2	5	11	-0.8	-1
COc1ccc(N(CC(=O)Nc2ccc(C)cn2)S(=O)(=O)c2c(C)nn(C)c2C)cc1	i	/	-12	/	3	/	-4	-7	0.0	-1
C=CCn1c(Sc2nc(C)cs2)nc2c1c(=O)[nH]c(=O)n2C	/	0.7	/	10	4	-36	/	/	/	-18
COc1ccccc1N1CCN(C(=O)CCCCn2c(=O)[nH]c3ccsc3c2=O)CC1	i	/	-4.7	/	0	/	-5	2	-0.9	7
COc1ccc(C(=O)/C=C(\C)NCc2ccc3c(c2)OCO3)cc1	/	24*	/	?	-3	-9	/	/	/	1
CCc1cccc(NS(=O)(=O)c2csc(C(N)=O)c2)c1	i	0.2	-0.5	-7	-3	-1	0	-2	8.5	-4
COc1ccc(C)cc1S(=O)(=O)N1CCN(C)CC1c1ccccc1 (stereo not drawn)	i	/	-6.6	/	-13	/	6	6	2.8	8
CCNC(=O)c1ccccc1SCC(=O)Nc1ccc(F)cc1	i	-0.2	-1.8	-9	-5	-8	3	9	3.8	-6
OCC1(Cc2ccc(F)cc2)CCCN(CCc2ccccc2)C1 (stereo not drawn)	i	5.8	4.6	3	-4	-4	6	6	0.1	/
O=C(c1[nH]ncc1[N+](=O)[O-])N1CCOCC1	i	3.8	-0.5	-4	-4	-3	11	11	0.0	0
Nc1cc(S(=O)(=O)Nc2cc(Cl)ccc2Cl)ccc1N1CCOCC1	i	-1.1	-6.7	9	7	1	-3	-9	1.7	13
CCCNC(=O)c1nc(C)c(C)nc1C(=O)Nc1cccc(Cl)c1	i	-4.2	-2.0	-3	-8	7	7	1	-4.8	-5
O=C(CN1CCN(Cc2ccccc2Cl)C1=O)NCc1cccnc1	i	-4.9	-2.0	-1	-2	1	12	10	2.2	/
O=C(CCCCCn1c(=O)[nH]c2ccsc2c1=O)NCc1ccc(F)cc1	/	0.9	/	4	-3	-6	/	/	/	10
O=C(NCCCn1ccnc1)c1c(F)cccc1F	i	-3.1	-2.3	-6	-5	1	1	4	-2.9	-4
CC(C)N(C(=O)[C@H]1CC(CC(=O)NCc2ccco2)C(=O)N2CCc3c([nH]c4ccccc34)[C@]12C)C(C)C (stereo partly drawn)	i	/	1.0	/	3	/	3	-8	-2.0	0
C[C@H](NC(=O)c1ccco1)C(=O)OCC(=O)N1CC(=O)Nc2ccccc21	i	/	-1.5	/	-5	/	6	10	-5.2	/
CCC(C)NS(=O)(=O)c1ccc(OCC(=O)Nc2ccc3c(c2)OCCO3)cc1 (stereo not drawn)	/	3.1	/	-10	-1	2	/	/	/	-5
Cn1c(CN2CCCCC2)nc2cc(NC(=O)c3cccc(Br)c3)ccc21	/	3.3	/	28	4	?	/	/	/	5
Cc1ccc(C(=O)OCC(=O)N2CCCCCC2)c(O)c1	i	/	-0.9	/	-3	/	7	12	-1.7	4
Cc1ccc(O)c(CNc2nccs2)c1	i	0.5	-0.5	-1	-4	-10	3	11	2.9	-9
Cc1cccc(N(CC(=O)Nc2ccc(CC#N)cc2)S(C)(=O)=O)c1	/	3.3	/	-2	-9	-3	2	3	-0.7	-18
Cc1cc(NS(=O)(=O)c2ccc(NC(=S)NC(=O)c3ccc(F)cc3Cl)cc2)no1	i	5.4	?	-3	3	-7	-11	-25	-7.5	30
Cc1ccc(C)c(NC(=O)c2ccccc2C(=O)c2ccccc2)c1	i	0.1	2.3	-22	/	-2	-7	-3	-1.4	-5
CCCCn1c(N)c(N(CCOC)C(=O)c2ccc(F)c(S(=O)(=O)N3CCOCC3)c2)c(=O)[nH]c1=O	i	1.3	-1.2	-11	0	0	15	20	8.3	-2
O=C(NCc1nc2ccccc2[nH]1)C1=C[C@H](c2ccc(C(F)(F)F)cc2)C[C@H](OCc2ccc(CO)cc2)O1	i	0.4	-5.8	27	-1	11	-9	-10	-3.9	2
COc1cccc(NC(=O)CCc2ccccc2)c1	i	/	-3.7	/	3	/	1	4	-5.1	/
CCOc1cc(C(=O)OCC(=O)NC(C)c2ccccc2)ccc1OCC(=O)N1CCOCC1 (stereo not drawn)	i	-11	-0.5	-5	/	-5	6	5	2.9	-5
CC(C)CNC(=S)N(CCCO)Cc1cc2cc3c(cc2[nH]c1=O)OCO3	i	-5.2	-4.8	6	4	6	-7	-5	0.1	0
COc1ccc(C(=O)N2CCN(c3ccc(NC(=O)c4cccs4)cc3)CC2)cc1	i	1.5	-1.7	12	/	1	2	19	13	12
CCCN(CCC)CCCNC(=O)c1cc2cc3ccc(Cl)cc3nc2o1	i	-0.9	0.0	18	1	4	8	10	0.2	2
CCc1ccc2c(CC(=O)Nc3nnc(C4CC4)s3)coc2c1	/	2.4	/	8	-9	27	/	/	/	-1
COC(=O)[C@@]12CCCCN1[C@H](c1ccc(-c3cccc(Cl)c3)c(OC)c1)[C@H]1C(=O)N(C)C(=O)[C@H]12	i	-4.0	-1.2	-14	10	12	7	-14	-4.2	3
CC(C)(C)c1ccc(NC(=O)C2=CN3CCS(=O)(=O)N=C3C=C2)cc1	i	/	0.3	/	0	/	9	8	-0.5	1
CC1=CC(C)(C)Nc2ccc(C)cc21	/	7.4	/	?	-7	-5	/	/	/	-27
Cc1nccn1CCCN1C(=O)OC2(CCCCC2)C1(C)O (stereo not drawn)	/	-1.3	/	-13	/	-1	/	/	/	3
CC(=O)Oc1ccc2nc(-c3ccco3)oc(=O)c2c1	i	-2.0	-0.7	-9	0	-4	14	15	4.2	18
Cn1nnc(NC(=O)c2ccc([N+](=O)[O-])cc2Cl)n1	i	?	0.0	7	2	7	9	13	-2.6	-15
Cc1c(-c2ccccc2)c(=O)oc2cc(O)ccc12	i	?	-1.4	-18	0	4	-6	-33	-4.1	-5
c1ccc(-c2nnc(CSc3nncs3)o2)cc1	/	4.5	/	4	-5	-3	/	/	/	-6
CCOc1ccccc1N(CC)C(=O)c1nn(C)c2c1CSc1ccccc1-2	i	5.8	0.5	20	-5	15	5	6	3.9	-7
O=C(C1CCCO1)N1CCN(C(=S)Nc2ccc(Cl)cc2Cl)CC1 (stereo not drawn)	i	?	-1.5	-23	-11	4	-4	-4	-5.6	1
CC(=O)Nc1ccc(NC(=O)Nc2cc(C)cc(C)c2)cc1	i	1.2	0.4	0	-4	2	14	19	-0.7	-3
CCOC(=O)N1CCC(NC(=O)c2ccc3c(c2)N(Cc2ccc(F)cc2)CCS3)CC1	i	7.2	0.1	25	1	-2	0	2	-0.1	36
CC(=O)c1ccc(OC(=O)N(c2ccccc2)c2ccccc2)cc1	/	3.4	/	-1	-3	-3	/	/	/	-28
CCn1c(SCC(=O)N2CCCc3ccccc32)nc2cccnc21	/	-1.4	/	3	-5	8	/	/	/	-2
CCCc1nnc(NC(=O)CCC(=O)Nc2ccc(F)cc2)s1	i	-2.7	-12	0	-2	-3	13	18	-2.1	-5
Cc1sc2ncnc(NCC3(N4CCOCC4)CCCCC3)c2c1C	/	1.1	/	-2	25	-1	/	/	/	/
Cc1ccc(C23CC4CC(CC(C(=O)N(C)C)(C4)C2)C3)cc1	i	-0.2	1.0	9	1	-29	-12	-22	0.2	-5
CSc1cccc(CN2CCCC(C(=O)Nc3cccc(-n4cccn4)c3)C2)c1 (stereo not drawn)	i	1.8	2.7	7	-5	42	2	-36	10	2
O=C(c1ccccc1)N(CCO)Cc1cc2cc3c(cc2[nH]c1=O)OCCO3	i	-0.9	0.1	-6	-6	31	14	16	8.8	2
CC1CCCC(NC(=O)CN2CCN(Cc3ccc(Cl)cc3)C2=O)C1C (stereo not drawn)	/	-0.9	/	3	1	10	/	/	/	-1
O=C(/C(=C/c1ccccc1Cl)c1ccccc1)N1CCOCC1	/	-1.7	/	-1	-5	2	/	/	/	-2
CCOC(=O)c1cc2cc([N+](=O)[O-])cc(OC)c2oc1=O	/	-1.2	/	-10	-13	?	/	/	/	-5

Entries of single compounds, quoted from the list:
`CC1CCCC(NC(=O)CN2CCN(Cc3ccc(Cl)cc3)C2=O)C1C` (stereo not drawn) in the list: FGF22 binding: /; RanGTP-Impb inh: -0.9; MLL AF4-AF9 inh: /; T cruzi repl: 3; Beta cell apopt: 1; Calb FLC: 10; rRNA inh HTS: /; rRNA inh HTS OD600: /; rRNA inh HTS RFP: /; ALR H2O2 inh: -1
`Cc1ccc(C23CC4CC(CC(C(=O)N(C)C)(C4)C2)C3)cc1` in the list: FGF22 binding: i; RanGTP-Impb inh: -0.2; MLL AF4-AF9 inh: 1.0; T cruzi repl: 9; Beta cell apopt: 1; Calb FLC: -29; rRNA inh HTS: -12; rRNA inh HTS OD600: -22; rRNA inh HTS RFP: 0.2; ALR H2O2 inh: -5

Screens from PubChem.
